Screening results (PubChem BioAssay)
E coli growth: E. coli growth inhibition; actives 0.21% (n = 330,000); Escherichia coli growth, OD600, 23 h; active compounds read low; OD600 absorbance (no concentration beside the values);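 active = OD600 absorbance below the run mean of sample wells minus 3.6 SD, in any replicate, cut at about 0.56 in these data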;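 note: stock transfer was 300 nL into about 60 µL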
UCH37 inh: blocks the human deubiquitinase UCH37 | Q9Y5K5 | inhibition, % (no concentration beside the values) | AID 588478 | actives 0.33% (n = 330,000) | purified proteasome/UCH37, Ub-AMC cleavage fluorescence;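 active = mean of two replicates above 20%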;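 note: 0% = compound-free wells with enzyme and 100% = wells lacking proteasome; stock transfer was 100 nL into about 20 µL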
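system = Proteasome-associated human UCH37 deubiquitinase | amount = 0.15 nM proteasome as dispensed | medium = pH 7.4 Tris-HCl (50 mM) with ovalbumin, ATP-MgCl2, DTT | incubation = 30 min preincubation with enzyme, 25 min cleavage at room temperature | detection = AMC fluorescence 355/460 nm | read-out basis = percent inhibition | controls = no-proteasome and no-compound wells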
HNF4A DNA FP: change in binding of human HNF4 alpha to DNA | P41235 | HNF4a-FITC DNA binding, fluorescence polarization, 1 h | activity change, % at 10 µM | actives 0.3% (n = 360,000); in the data active = activity change above about 30%, passing the limit was not always enough;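 note: controls were the assay level and a saturating level of protein; the project sought stronger binding though the title names inhibitors; some compounds called inactive have numbers as strong as hits; positive values seem to mean higher polarization but the record does not say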
LANA-H2A inh: blocks KSHV LANA binding to histone H2A/H2B; Q9QR71; cell-free LANA-H2A/H2B peptide, fluorescence polarization; inhibition, % (concentration not given with the values); actives 0.6% (n = 320,000); AID 2629; in the data active = inhibition mostly above about 10%, no sharp cut-off; inactive = mostly below about 6.7%;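 note: stock transfer was 7.5 nL into about 10 µL; 0% = median of vehicle wells and 100% = median of positive control wells; one replicate is shown; the record names a cut of 25% in any replicate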
Target sequence (Q9QR71 whole entry, looked up): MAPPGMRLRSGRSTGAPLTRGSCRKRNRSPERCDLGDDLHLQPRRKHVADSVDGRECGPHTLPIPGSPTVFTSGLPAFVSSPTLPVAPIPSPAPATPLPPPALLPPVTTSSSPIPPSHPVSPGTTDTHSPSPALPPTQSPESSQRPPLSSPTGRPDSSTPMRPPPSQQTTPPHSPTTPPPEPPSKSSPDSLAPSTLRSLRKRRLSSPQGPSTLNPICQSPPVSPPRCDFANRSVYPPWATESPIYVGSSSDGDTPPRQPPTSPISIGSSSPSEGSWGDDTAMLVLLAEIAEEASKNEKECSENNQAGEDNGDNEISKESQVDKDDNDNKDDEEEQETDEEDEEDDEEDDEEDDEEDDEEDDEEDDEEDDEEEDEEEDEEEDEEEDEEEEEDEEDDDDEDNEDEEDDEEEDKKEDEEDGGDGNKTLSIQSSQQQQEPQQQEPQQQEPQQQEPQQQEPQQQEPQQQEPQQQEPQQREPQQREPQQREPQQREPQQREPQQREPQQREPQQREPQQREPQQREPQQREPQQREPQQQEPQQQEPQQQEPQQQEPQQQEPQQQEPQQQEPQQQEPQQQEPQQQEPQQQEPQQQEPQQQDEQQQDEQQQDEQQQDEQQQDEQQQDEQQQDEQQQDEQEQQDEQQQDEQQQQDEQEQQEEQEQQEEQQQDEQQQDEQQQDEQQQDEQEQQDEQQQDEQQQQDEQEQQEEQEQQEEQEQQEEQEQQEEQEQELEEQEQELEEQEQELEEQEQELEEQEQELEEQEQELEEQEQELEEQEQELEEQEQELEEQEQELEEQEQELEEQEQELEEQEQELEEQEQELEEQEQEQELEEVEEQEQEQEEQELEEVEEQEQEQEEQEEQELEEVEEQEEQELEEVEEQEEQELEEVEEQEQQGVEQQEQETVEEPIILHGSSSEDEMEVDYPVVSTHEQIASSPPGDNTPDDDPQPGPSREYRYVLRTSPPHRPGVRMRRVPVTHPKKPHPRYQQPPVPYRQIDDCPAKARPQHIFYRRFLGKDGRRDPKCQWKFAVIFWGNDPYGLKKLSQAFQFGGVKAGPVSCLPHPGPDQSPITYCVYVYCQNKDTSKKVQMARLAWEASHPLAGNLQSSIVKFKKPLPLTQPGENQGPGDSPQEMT
Vif A3G: inhibitors of Vif binding to APOBEC3G peptide, primary screen, biochemical, TR-FRET, GST-Vif 1-94, biotin-A3G peptide, dose response retest (AID 1117319); actives 0.57% (n = 260,000); TR-FRET GST-Vif / biotin-A3G peptide binding; higher % means a stronger effect; test concentration not given here; strong numbers were not always called active; inhibition, %, or IC50 in µM where a hit was titrated;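 active = above the screen mean plus three standard deviations and confirmed in dose response; inconclusive = results disagree or hit not tested in dose response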;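 note: Vif residues 1-94 fused to GST binding biotinylated APOBEC3G peptide 110-148; 0% = full assay without inhibitor and 100% = GST in place of GST-Vif; retest series ran down from 100 µM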
Beta2AR agonist: activates human beta-2 adrenergic receptor causing internalization; P07550; Am2.2-beta2AR cells, FAP receptor internalization, flow cytometry; reference of the scale not given here; response, % (concentration not given with the values); actives 0.43% (n = 340,000);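 active = response above a set limit, near 3 SD of response in nonfluorescent compounds, cut at about 42% in these data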;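 note: stock transfer was 100 nL into about 11 µL; a reference agonist was the positive control; negative values mostly stem from fluorescent compounds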
A1 inh: inhibitors of the anti-apoptotic protein A1, read as caspase activation | MEF A1-2A-BIM cells, Caspase-Glo 3/7 luminescence, 3 h; percent of clofoctol response, vehicle zero | caspase activation, % (no concentration beside the values) | actives 0.066% (n = 330,000);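 active = over half of replicate activation scores above 10%, or exactly half above 10 with the replicate mean above 10; inconclusive = replicate mean below 10 yet half the replicates above 10; inactive = over half of replicates below 10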;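 note: wells of about 30 µL received 50 nL stock; many hits fall short of the cut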
Numbers without * were called inactive; ? = inconclusive; . = no result given; & = joins results of further samples.

SMILES	E coli growth	UCH37 inh	HNF4A DNA FP	LANA-H2A inh	Vif A3G	Beta2AR agonist	A1 inh
CCN(CC)S(=O)(=O)c1cc(C(=O)OCC(=O)NC(=O)c2cccn2C)ccc1C	0.707	1.1	1.6	-2.7	?	-1.9	0.4
CN(C)c1ccc(/C=[N+](\[O-])C(C)(C)/C=N/O)cc1	.	.	-0.2	0.8	-0.2%	6.7	0.3
O=C(Nc1ccc(Cl)c([N+](=O)[O-])c1)ONC1=NCCCCC1	0.647	4.0	1.7	0.8	6.8%	-0.7	-0.6
CCN(CC)c1nc2n(c(=S)n1)CCS2	0.688	1.1	-4.2	-3.5	0.5%	7.1	0.2
Cc1ccc(S(=O)(=O)N(CC(=O)Nc2cccc(C(F)(F)F)c2)C(=O)N2CCN(C)CC2)cc1	0.67	3.8	-1.2	-0.3	-2.0%	2.1	-0.3
CCC(NC(=O)NC1CCCCC1)c1ccccc1 (stereo not drawn)	0.677	1.9	3.3	-7.7	?	2.1	2.1
CC(C)Cc1nnc(NC(=O)C2CCN(C(=O)c3ccc(Cl)cc3)CC2)s1	0.718	-2.4	0.4	-5.9	1.7%	0.7	0.4
CS(=O)(=O)Nc1ccc(-c2ccc(/C=C3\SC(N)=NC3=O)o2)cc1	.	0.8	42.4*	-0.1	.	-14.3	1.0
Cc1ccsc1CN(C)Cc1nc(C2CC2)no1	0.66	1.4	-4.6	-5.4	-2.0%	-3.7	0.9
CC12CCC(C(=O)NCc3ccccc3Cl)(CC1=O)C2(C)C (stereo not drawn)	0.744	2.6	0.9	-0.4	1.7%	8.3	-0.2
C[C@H](NC(=O)c1ccc(Cl)cc1)C(=O)NNC(=O)c1cccs1	0.663	-0.5	-1.3	1.3	-10.6%	4.2	0.6
Cc1ccc(/C=N/NC(=O)CC2N=C(Cc3ccccc3)NNC2=O)cc1 (stereo not drawn)	.	.	-2.0	4.2	1.5%	3.7	-0.8
Cc1cc(C)n(-c2ncnc3sc4c(c23)CCCC4)n1	0.654	-21.1	5.4	3.3	20.6%	-4.1	0.9
Cc1ccc(S(=O)(=O)Nc2n[nH]nc2C(=O)NC2CCCCC2)cc1	0.651	0.6	3.8	7.5	4.4%	-1.2	0.5
Fc1ccc(NC(=S)NCc2ccccc2)cc1	0.648	4.5	-5.5	-2.5	.	3.5	0.7
O=C(NCC(=O)N1CCC(Cc2ccccc2)CC1)c1ccc(Cl)cc1	0.693	4.2	4.7	6.7	.	1.0	0.0
CCc1nnc(NC(=O)c2ccc(NC(=O)C(C)C)cc2)s1	0.621	3.4	-2.1	-3.7	-10.5%	-2.6	3.1
O=C(CN1C(=O)NC2(CCCCCC2)C1=O)NCc1ccccc1Cl	0.693	4.4	-0.7	-0.5	.	-9.3	2.2
COc1ccc(-c2nnc(SCC(=O)OC3CCCCC3)o2)cc1OC	0.675	2.5	2.9	4.0	-6.3%	10.1	-2.4
CS(=O)(=O)NNC(=O)Cn1nnc(-c2cc(C(F)(F)F)cc(C(F)(F)F)c2)n1	0.696	4.5	2.8	-1.4	-9.7%	-9.6	-0.2
Cc1ccc(Cl)cc1N1CCN(C(=O)CCS(=O)(=O)c2ccc3c(c2)NC(=O)CO3)CC1	0.677	2.3	-0.7	0.4	3.1%	12.7	0.5
Cc1cc(C)c(C)c(S(=O)(=O)NC(C(=O)O)C(C)C)c1C (stereo not drawn)	0.669	4.3	-0.4	-3.7	3.9%	-0.5	-0.3
CCC(Sc1nc(=O)cc(N)n1CCc1ccccc1)C(=O)Nc1ccccc1C#N (stereo not drawn)	0.729	4.9	0.7	-0.4	2.3%	5.0	0.6
COc1ccc(C(=O)O)cc1S(=O)(=O)Nc1cc(Cl)ccc1N1CCOCC1	0.657	2.6	0.5	.	.	6.4	.
Cc1ccsc1C(=O)Nc1n[nH]c(C(F)(F)F)n1	0.714	6.7	0.1	-1.7	.	0.5	-0.5
CSc1ccccc1NC(=O)Cn1nnc(-c2ccc(S(C)(=O)=O)cc2)n1	0.673	-2.9	-0.9	-0.7	.	-13.9	-0.3
N/C(=N\S(=O)(=O)c1ccc(Cl)s1)c1ccccc1	0.681	-10.4	2.9	2.2	-2.9%	-2.3	0.7
O=C(CCNS(=O)(=O)c1ccccc1C(F)(F)F)NCCCc1ccccc1	0.705	-1.6	2.8	.	.	-0.9	.
O=C(CSC(=S)N1CCOCC1)Nc1ccc(S(=O)(=O)Nc2ncccn2)cc1	0.678	-0.5	-1.1	1.1	.	0.8	-0.2
COC(=O)c1ccc2c(C)c(C(C)(C)O)[nH]c2c1	0.66	-387.4	-0.9	-0.5	.	-3.9	0.1
CC1CN(Cc2nc3c(c(=O)n(C)c(=O)n3C)n2CCN2CCOCC2)CC(C)O1 (stereo not drawn)	0.697	2.7	-3.3	.	7.3%	8.4	.
N#CC1(NC(=O)COc2ccc3oc4ccccc4c3c2)CCCCC1	0.703	3.8	-1.2	1.2	19.4%	-4.3	0.0
N#CCCN1CCN(Cc2cc(-c3ccccc3)ccc2O)CC1	0.65	1.6	3.0	3.5	32.2%	4.5	-0.2
COc1ccc(NC(=S)N2CCCCC2c2cccnc2)cc1 (stereo not drawn)	0.673	-0.9	3.1	4.1	23.1%	2.4	0.6
Cc1ccc(CCNC(=O)C2CCN(S(=O)(=O)N3CCOCC3)CC2)cc1	0.737	0.5	0.7	1.0	.	0.8	0.8
CC1CCCCC1NC(=O)/C(C#N)=C/c1ccc(OCC(N)=O)cc1 (stereo not drawn)	0.662	1.9	1.0	-1.5	2.2%	-3.6	-0.1
CN(CC(=O)Nc1ccc(N2CCOCC2)cc1)C(=O)CCc1cc(C(C)(C)C)c(O)c(C(C)(C)C)c1	.	.	4.4	-1.8	.	-1.9	-0.2
CCOC(=O)c1c(-c2cccs2)csc1NC(=O)CCCC(=O)O	0.727	0.4	0.2	-7.1	-16.1%&-24.4%	-5.1	0.1
CC1CC1C(=O)OCC(=O)NC(=O)NCc1ccco1 (stereo not drawn)	0.735	-1.0	-1.1	0.2	3.7%	3.7	0.7
CC1=C(C(=O)OCC(Cl)(Cl)Cl)N2C(=O)C(NC(=O)Cc3ccccc3)C2SC1 (stereo not drawn)	0.687	2.5	-5.0	7.0	67.2%	4.6	-0.1
COc1ccc(/C=C(\NC(=O)c2ccc([N+](=O)[O-])cc2)C(=O)NCCCn2ccnc2)cc1	0.661	1.1	-2.9	5.2	.	-3.0	0.5
COCCNC(=O)/C(C#N)=C/c1c(N2CCN(c3ccccc3)CC2)nc2ccccn2c1=O	0.688	-13.5	2.9	0.9	-2.0%	-8.3	0.8
CC1COc2ccccc2N1S(=O)(=O)c1cc(Cl)ccc1Cl (stereo not drawn)	0.676	4.6	0.2	-9.3	-6.2%	-7.0	2.6
COc1cc(O)c(C(CCN2CCN(c3ccccc3)CC2)c2ccc(N(C)C)cc2)c(OC)c1 (stereo not drawn)	0.656	-0.6	4.9	0.9	.	11.1	-0.9
CC(=O)Nc1c(C(=O)N2CCN(c3ccccn3)CC2)cnn1-c1ccc(C)cc1	0.671	-0.8	-3.5	1.4	-0.4%	-2.2	0.2
O=C(Cn1cncn1)c1ccccc1Br	0.699	1.7	5.5	-0.1	-1.8%	-5.8	0.6
CCOC(=O)C(NC(=O)c1ccccc1Cl)(Nc1sc2c(c1C(N)=O)CCC2)C(F)(F)F (stereo not drawn)	0.691	1.7	4.8	.	25.0%	-0.7	.
Cc1cc(/C=C2/C(=O)NN(c3ccccc3)C2=O)c(C)n1-c1ccc(O)cc1	0.717	0.7	-0.2	-0.2	-6.0%	-14.3	0.1
NC(=O)CSc1nnc(-c2ccccn2)n1Cc1ccco1	0.704	7.1	-3.2	-3.8	-7.8%	-7.5	1.5
CCN(CC)S(=O)(=O)c1ccc(S(=O)(=O)Nc2cc3c(cc2C(C)=O)OCO3)cc1	0.714	1.6	0.4	-0.1	?	2.3	-0.1
CCN1C(=O)[C@H]2[C@@H](c3ccc(-c4ccccc4)cc3)N3CCC[C@@]3(C(=O)OC)[C@H]2C1=O	.	0.4	0.9	-0.4	.	7.6	-1.1
O=c1c2c3c(sc2ncn1/N=C/c1ccc(Br)o1)CCCC3	.	.	0.8	4.7	-7.8%	-5.4	-0.1
CC1CCN(c2ccccc2NC(=S)NC(=O)C(C)(C)C)CC1	0.657	3.8	-3.7	-0.8	-4.6%	7.0	-0.4
CC1(c2ccc([N+](=O)[O-])cc2)NC(=O)N(CC(=O)Nc2ccc(N3CCCCC3)cc2)C1=O (stereo not drawn)	0.708	0.8	0.4	4.4	-2.9%	9.9	-0.2
CCC(=O)NCC(c1cccs1)S(=O)(=O)c1ccc(C)cc1 (stereo not drawn)	0.643	1.3	1.1	-1.3	0.3%	-3.0	1.2
CCCCCCC(C)NC(=S)Nc1cc(S(=O)(=O)N(C)C)ccc1C (stereo not drawn)	0.68	-0.4	-0.1	-2.3	20.5%	-7.1	1.9
O=C(c1ccccc1)n1c(=O)c(F)cn(COCCBr)c1=O	0.666	3.0	-1.5	-3.7	3.6%	12.3	0.6
O=C(Cn1cnc([N+](=O)[O-])n1)NCCO	0.714	4.0	5.5	-3.4	-11.0%	8.0	0.9
COC(=O)c1ccc(NC(=S)NNC(=O)c2ccccc2)cc1	0.658	9.2	-4.8	-0.1	29.9%	-3.9	-0.2
CCN(C(=O)COC(=O)/C=C/c1ccc2c(c1)OCO2)c1c(N)n(Cc2ccccc2)c(=O)[nH]c1=O	0.719	-22.0	-1.8	.	.	-5.7	.

Records listed above that bear a hit mark in HNF4A DNA FP:
SMILES	UCH37 inh	HNF4A DNA FP	LANA-H2A inh	Vif A3G	Beta2AR agonist
CS(=O)(=O)Nc1ccc(-c2ccc(/C=C3\SC(N)=NC3=O)o2)cc1	0.8	42.4*	-0.1	.	-14.3

New compounds follow.
SMILES	E coli growth	UCH37 inh	HNF4A DNA FP	LANA-H2A inh	Vif A3G	Beta2AR agonist	A1 inh
CN(C)C(=O)Cn1nc(-c2ccccc2)c2ccccc2c1=O	0.725	1.4	2.4	1.6	0.0%	-1.4	0.0
O=C1ON=C(c2ccccc2[N+](=O)[O-])/C1=C/c1cccc([N+](=O)[O-])c1O	0.709	6.0	3.1	.	-3.0%	5.1	0.1
CCOc1ccc(NC(=O)NCC2CCN(c3ccc(OC)cc3)C2)cc1 (stereo not drawn)	0.713	-1.7	4.1	2.0	2.0%	-0.6	0.7
Cc1ccnn1-c1ccc(C(=O)OCC(=O)Nc2ccc(F)cc2)cc1	0.669	2.9	3.4	.	-5.3%	3.0	.
CCOC(=O)C1=C(CSc2n[nH]c(N)n2)NC(=O)NC1C (stereo not drawn)	0.719	0.6	-0.7	2.1	4.3%	10.1	2.2
Cc1ccc(NC(=O)c2ccc(F)cc2F)cc1	0.666	0.3	-0.3	-1.8	.	-1.3	-9.2
CC(C)C[C@@H](CC#N)N1CCN(Cc2ccccc2)CCC1=O	.	-0.1	3.9	0.5	.	-14.9	0.4
CCOC(=O)c1ccc(C(=O)NNC(=O)C2CC=CCC2)cc1 (stereo not drawn)	0.631	3.0	2.2	4.5	.	0.5	-0.4
Cc1cc(=O)n(C)c(=O)n1CCCCCOc1cccc([N+](=O)[O-])c1	0.677	1.6	0.7	0.4	17.2%	1.2	-0.6

Arranged by the number under Beta2AR agonist (rising): three of the compounds above.
Structure,Beta2AR agonist
Cc1ccc(NC(=O)c2ccc(F)cc2F)cc1,-1.3
Cc1cc(=O)n(C)c(=O)n1CCCCCOc1cccc([N+](=O)[O-])c1,1.2
Cc1ccnn1-c1ccc(C(=O)OCC(=O)Nc2ccc(F)cc2)cc1,3.0
